Compound activity as filed in PubChem BioAssay.
UUG fidelity: modulators of yeast start codon fidelity, primary screen, whole organism, S. cerevisiae, single point, plate reader | S. cerevisiae UUG-firefly luciferase reporter, luminescence/redox ratio | activity score, % at 18.7 µM | 0.13% of 350,000 active;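 active = replicate mean at a twofold rise or more, about +100% in these data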;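 also: firefly luciferase made from a UUG start codon reports start codon fidelity; reporter light over untreated wells divided by growth signal over untreated wells; some hits fall short of that in this replicate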
CSC inhib: cancer stem cell viability inhibitors, primary screen, luminescence. cancer stem cell-like cells viability. inhibition, % at 7.5 µM. 1.1% of 300,000 active. AID 2717, 2010;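 active = mean at 75% or more and at least half the replicates too; inconclusive = mean and replicates disagree; tested in HMLE shEcad cells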;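 also: 0% = median of negative and 100% = median of positive control wells; the first replicate is given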
eIF4H inh: human eIF4H binding inhibitors, primary screen, translation initiation inhibitor project, biochemical, uHTS, fluorescence polarization; 0.94% of 290,000 active; inhibition, % at 35 µM; Eukaryotic translation initiation factor 4H (Homo sapiens), Q15056; eIF4H fluorescence polarization binding assay;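 active = 50% or more with normal probe brightness, or confirmed in later tests; inconclusive = above 50% with abnormal brightness, or retests that disagree; inactive = below 50% or failed in later tests; about a fifth of its hits are not listed in these tables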;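 also: calls also rest on retests at 20 µM and on dose response follow-up; 0% = protein and probe with vehicle and 100% = probe without protein; strong numbers were not always called active; many hits fall short of the cut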
PABP polyA inh: PABP poly(A) RNA binding inhibitors, primary screen, biochemical, fluorescence polarization, uHTS | Polyadenylate-binding protein 1 (Homo sapiens), P11940 | inhibition, % at 35 µM | 1% of 290,000 active;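 active = 50% or more with normal probe brightness, or confirmed in later tests; inconclusive = above 50% with abnormal brightness, or retests that disagree; inactive = below 50% or failed in later tests; about a fifth of its hits are not listed in these tables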;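 also: calls also rest on retests at 20 µM and on dose response follow-up; controls were probe without protein and protein plus probe with vehicle; some compounds called inactive have numbers as strong as hits; many hits fall short of the cut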
Target sequence (P11940 whole entry, looked up): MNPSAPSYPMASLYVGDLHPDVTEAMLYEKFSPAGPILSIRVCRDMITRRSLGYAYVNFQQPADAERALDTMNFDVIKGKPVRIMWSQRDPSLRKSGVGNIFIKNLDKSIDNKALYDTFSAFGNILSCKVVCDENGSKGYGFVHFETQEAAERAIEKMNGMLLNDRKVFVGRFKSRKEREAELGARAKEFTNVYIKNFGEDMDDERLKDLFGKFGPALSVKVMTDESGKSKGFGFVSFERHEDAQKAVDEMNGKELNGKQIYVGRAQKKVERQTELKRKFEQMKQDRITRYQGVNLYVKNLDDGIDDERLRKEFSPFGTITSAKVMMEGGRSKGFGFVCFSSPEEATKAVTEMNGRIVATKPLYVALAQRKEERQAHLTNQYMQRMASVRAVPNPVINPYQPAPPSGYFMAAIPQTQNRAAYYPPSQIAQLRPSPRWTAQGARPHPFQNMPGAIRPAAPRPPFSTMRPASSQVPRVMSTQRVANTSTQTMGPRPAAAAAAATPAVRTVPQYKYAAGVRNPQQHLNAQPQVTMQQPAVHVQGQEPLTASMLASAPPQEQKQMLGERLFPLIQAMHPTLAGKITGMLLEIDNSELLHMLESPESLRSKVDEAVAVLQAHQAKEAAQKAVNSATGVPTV
Rce1 inh: yeast Rce1p protease inhibitors, primary screen, biochemical, fluorescence, cell-free homogeneous. CAAX prenyl protease 2 (Saccharomyces cerevisiae (strain ATCC 204508 / S288c)), Q03530. yeast membranes, quenched prenylated peptide cleavage fluorescence. calls only. 0.27% of 290,000 active;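 active = fall in fluorescence gain of 50% or more versus controls, with final raw signal at or below 3038400; inconclusive = same 50% fall but final raw signal above 3038400; inactive = fall in fluorescence gain under 50%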;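 also: plate controls were neutral control wells for no effect and wells lacking membranes for full effect; tested at 10 µM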
MT1-MMP act inh: blockers of MT1-MMP proenzyme processing, primary screen, HT1080 RFP-PRO-GFP cells, GFP/RFP fluorescence; Matrix metalloproteinase-14 (Homo sapiens), P50281; GFP/RFP ratio fluorescence, overnight; percent of plate control window, DMSO zero; GFP/RFP ratio change, % at 20 µM; 0.061% of 360,000 active; AID 651647, 2012;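 active = GFP/RFP ratio change of at least 30% with cell ATP level not reduced by more than half and red fluorescence within 50% of control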; also: strong numbers were not always called active
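Test system: HT1080 cells expressing an RFP-PRO-GFP fluorescent reporter construct / Compound dosing: single-point 20 µM compound, 1% DMSO / Schedule: cells overnight before dosing, compound overnight, 37 °C, 5% CO2 / Evaluation: GFP/RFP fluorescence ratio / Control set: DMSO and RFP-L50D-GFP cell wells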
Env fusion inh: inhibitors of HIV-1 Env-driven cell-cell fusion, primary screen, HeLa-JRFL effector, CEM21 target cells, luciferase; inhibition, % at 12.3 µM; 1.1% of 360,000 active;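 active = mean replicate inhibition score of at least 50 and every replicate individually at or above 50; inconclusive = only one of the two criteria met; inactive = mean below 50 and not all replicates reaching 50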;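 also: 0% = plate neutral controls and 100% = maraviroc near 300 nM; one replicate is shown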
eIF4H inh retest: second read-out of eIF4H inh, no call of its own (marks repeat the call); inhibition, %; compound at 20 µM; confirmation average;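 mean of two retest wells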
PABP polyA inh retest: recorded beside PABP polyA inh, whose call it bears; inhibition, %; compound at 20 µM; confirmation repeats;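 mean of two retest wells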
MT1-MMP act inh RFP: recorded beside MT1-MMP act inh, whose call it bears; RFP signal change, %; measured here: RFP expression control read;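 0 = vehicle wells; hits needed this value within 50% of zero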
Active calls of the source: *; i = inactive; u = inconclusive; x = no result given; & = joins results of further samples.

SMILES	UUG fidelity	CSC inhib	eIF4H inh	PABP polyA inh	Rce1 inh	MT1-MMP act inh	MT1-MMP act inh RFP	Env fusion inh	others
CCSCc1nnc(SCC(=O)Nc2ccc(OC)cc2)n1C	x	-4	8	36	i	5	5	13
Cc1cc(C)cc(OCC(=O)NCCN2CCOCC2)c1	-2	-3	-10	-6	i	5	3	x
COc1ccccc1C(CNC(=O)c1cccc(NS(=O)(=O)c2ccc(Br)cc2)c1)N(C)C (stereo unspecified)	13	-9	x	x	i	2	-5	-26
Cc1ccc(NC(=O)COC(=O)Cn2c(C)csc2=O)cc1	-13	-10	-2	7	i	0	1	-73
Cc1cc(NC(=O)CSc2nc(C3CCCCC3)nc3ccccc23)no1	-10	-2	-12	2	x	-23	-24	x
CN(Cc1ccccc1)C1CCCN(C(=O)c2ccc(Cl)s2)C1 (stereo unspecified)	-7	5	-2	-4	i	2	2	21
COc1cc(NC(=O)c2cccs2)c(OC)cc1NC(=O)CCC(=O)Nc1cccc2ncccc12	x	-14	-5	-6	i	-2	-6	4
COc1ccc(NC(=S)NCc2cccs2)cc1OC	-7	-5	3	-6	i	-1	2	9
O=C(CCc1ccc(Oc2cc([N+](=O)[O-])cc([N+](=O)[O-])c2)cc1)NC1CCCC1	2	-5	-10	-7	i	1	-4	28
COc1cc2c(cc1OC)C(c1ccccc1)NCC2 (stereo unspecified)	5	-10	0	-4	i	-2	1	31
CC(C)OC(=O)c1nn2c(C(F)(F)F)cc(-c3ccco3)nc2c1Cl	x	-22	18	12	i	2	-2	x
Cc1cccc(-n2c(O)c(C=Nc3c(C)n(C)n(-c4ccccc4)c3=O)c3ccccc3c2=O)n1	7&-7	-5	-12	0	i	0&6	4&0	-5
CC(=O)OCc1ccc(C2=CC(=O)CC(C)(C)C2=O)cc1	3	x	x	x	x	-1	-2	8
CCCCNC(=S)NCc1ccc2c(c1)cc(C)n2C	-25	7	22	-1	i	4	1	x
CC1(C)C(c2ccccc2)=[N+]([O-])C2(CCCCC2=O)N1O (stereo unspecified)	-16	-8	10	7	i	-3	3	24

The final 2 compounds of the section above lead into the next.
SMILES	UUG fidelity	CSC inhib	eIF4H inh	PABP polyA inh	Rce1 inh	MT1-MMP act inh	MT1-MMP act inh RFP	Env fusion inh	others
CCCCNC(=S)NCc1ccc2c(c1)cc(C)n2C	-25	7	22	-1	i	4	1	x
CC1(C)C(c2ccccc2)=[N+]([O-])C2(CCCCC2=O)N1O (stereo unspecified)	-16	-8	10	7	i	-3	3	24
CC(=O)Oc1ccc(C(=O)Nc2cccc(-c3nnc(-c4ccco4)o3)c2)cc1	-4	-6	-4	-35	i	7	-6	17
O=C(Nc1ccccc1)c1cn(CCBr)cn1	-35	x	x	x	i	-3	1	-17
COc1ccccc1C(=O)NNC(=O)C(=O)NCc1ccccc1	-11	-8	3	-4	i	4	7	-51
CCCCOC(=O)n1ccc(C(=O)Nc2ccccc2OC)n1	-6	2	-1	-3	i	1	-1	x
CC(=O)OC[C@@H]1CN(Cc2cccc(C(F)(F)F)c2)C[C@H](n2cnc3c(N4CCOCC4)ncnc32)O1	1	x	x	x	x	-2	0	-12
Cc1ccc(C(=O)NCC(=O)OCc2c(F)cccc2Cl)s1	-16	-8	x	x	x	-5	-1	1
O=C(CCNC(=O)c1ccco1)Nc1nc2ccccc2s1	-8	x	x	x	x	9	-1	-34
Cc1cc(C)n(-c2nnc(C)n2NS(=O)(=O)c2ccc(F)cc2)n1	-23	3	-7	-4	i	4	-2	x
C=CCn1c(SCC(=O)NCc2ccc3c(c2)OCO3)nc2scc(-c3ccc(F)cc3)c2c1=O	-16	12	-3	-1	x	-2	2	107*
COc1ccc(NC(=S)NC23CC4CC(CC(C4)C2)C3)cc1OC	-15	5	-12	-6	i	-1	-1	-23
CN(C)S(=O)(=O)c1ccc(NC(=S)NC(=O)c2ccc(Br)o2)cc1	x	24	-7	-8	i	x	x	-9
CCOC(=O)C1(CCSC)NC(c2ccco2)C2C(=O)N(C)C(=O)C21 (stereo unspecified)	x	x	-4	-4	i	-2	5	-10
CC(C)CN(CC(C)C)C(=O)Nc1ccccc1F	x	-12	-5	-6	i	1	-1	15
O=C(COc1ccccc1)NCc1cccs1	-19	-4	8	-9	i	3	1	x
Cc1cc(C)c(CN2CCN(C(=O)Cn3cnc(C(=O)Nc4ccc(C)c(C)c4)n3)CC2)c(C)c1	-25	x	x	x	x	4	-10	-6
O=c1ccnc(Nc2ccc([N+](=O)[O-])cc2)[nH]1	x	1	x	x	i	2	1	5
CC(C)N1CCN(Cc2cnc(N3CCCC3)s2)CC1CCO (stereo unspecified)	x	x	-9	5	x	3	5	1
O=C1CC(NS(=O)(=O)c2cccs2)CN1c1ccc(F)cc1 (stereo unspecified)	x	5	x	x	i	3	4	2
Cc1ccccc1C(=O)c1cccn1CC(=O)NCc1ccc2c(c1)OCO2	-9	-5	-7	12	i	-6	-1	-85
Cc1ccc(-c2nc3ncccc3n2O)cc1	-23	-8	1	1	i	3	1	-20
Cc1cccc(N(CC(=O)Nc2c(C)n(C)n(-c3ccccc3)c2=O)S(C)(=O)=O)c1C	-9	0	-2	2	i	-1	1	x
Cc1ccc(CC(=O)N/N=C/c2ccc(OC(=O)c3ccc([N+](=O)[O-])cc3)cc2)cc1	-17	-18	-8	2	i	5	2	6
C=CCn1c(C)nnc1SCC(=O)Nc1oc(C)c2c(C)n[nH]c(=O)c12	x	4	x	x	i	4	3	-1
COc1cccc(NC(=O)CC(c2ccc(OC(C)C)cc2)c2ccccc2OC)c1 (stereo unspecified)	-18	x	-5	20	i	0	2	20
O=C(c1ccc2c(c1)N(Cc1ccccc1)CCS2)N1CCCCC1	8	25	-6	-10	i	-3	-2	30
COc1ccc(CCN(Cc2ccccn2)C(=S)Nc2ccccc2F)cc1OC	-5	-7	2	3	i	0	-1	11
CCOC(=O)c1sc(NC(=O)c2cccs2)cc1C	-8	-8	2	5	i	-1	-5	x
CCOc1ccc2nc(N/C(N)=N/C(=S)Nc3ccc(OC)cc3)nc(C)c2c1	-11	x	-1	-10	i	-6	-8	11
Cc1cccc(C(=O)NCC(C)NC(=O)c2cccc(C)c2)c1 (stereo unspecified)	-11	-1	-7	-7	i	1	4	-4
CCNC(=O)NC(=O)C(C)OC(=O)C(C)(C)Oc1ccc(Cl)cc1 (stereo unspecified)	x	-8	-5	-9	i	0	-1	-2
O=C(c1ccc(-n2cncn2)c([N+](=O)[O-])c1)N1CCN(c2cccc(Cl)c2)CC1	-7	-3	-2	5	i	1	-5	x
CCOC(=O)C[C@H]1c2cc(F)ccc2S(=O)(=O)N1C1CCCC1	-6	-6	x	x	i	2	-2	-22
O=C(Nc1ccc(N2CCN(C(=O)c3cccs3)CC2)cc1)c1cccnc1Cl	x	-8	-9	0	i	-1	1	-2
Cc1cc(N2CCCC2)nc2ccc(NC(=S)NC(C)C)cc12	x	19	-4	u	i	28	-1	-3
Cc1noc(COc2ccccc2OCc2onc(C)c2Cl)c1Cl	10	-2	0	5	i	-4	-4	-17
CCN(CC)CCOC(=O)CCc1cccc2ccccc12	-7	-12	2	-3	i	11	7	x
O=C(NCC(c1cccs1)N1CCOCC1)c1ccc(Cl)s1 (stereo unspecified)	-18	78*	-6	16	i	-13	-11	49
CCC(=O)Nc1cccc(-c2csc(-c3ccccc3)n2)c1	x	-7	-7	-10	i	4	8	-14
CCOc1ccc2ccccc2c1/C=N\NC(=O)c1ccc([N+](=O)[O-])cc1	-9	-7	3	-6	i	6	-3	-11
CCN(CC)S(=O)(=O)c1ccc(-c2nnc(SCC(=O)N3c4ccccc4CC3C)o2)cc1 (stereo unspecified)	-18	0	5	-2	i	3	-4	-21
O=c1c2c(n3cnnc3n1C1CCCCC1)-c1ccccc1CC21CCCCC1	x	30	0	-7	i	6	3	x
CCCCNS(=O)(=O)CCNCc1ccc(OC)cc1	-6	x	x	x	x	2	5	-23
COc1ccc2cc(C(C)C(=O)NC3CCC(O)CC3)ccc2c1 (stereo unspecified)	-7	-3	-10	3	i	1	1	1
COc1ccc(OC(=O)c2cc3ccccc3o2)cc1	-14	1	5	7	i	4	2	x
O=C(O)CCNC1C=CS(=O)(=O)C1 (stereo unspecified)	-25	x	0	6	i	-1	2	-10
CCCC1c2ccc(C)n2CCN1C(=O)Nc1ccccc1Cl (stereo unspecified)	-6	-2	u	-2	i	-25	6	x
O=C(COC(=O)c1ccc2ccccc2c1)NCc1ccccc1	-4	x	x	x	x	-1	5	-29
Cc1csc(NC(=O)CSc2nccn2C)n1	-32	-9	-7	-4	i	-2	-3	0
O=C(NC1CC1)c1ccc(NS(=O)(=O)c2ccccc2)cc1	-7	6	-3	-14	i	-2	1	2
O=C(COC(=O)c1cccs1)NCC1CCCO1 (stereo unspecified)	-12	-16	-7	-2	i	-2	-1	x
CN(C)c1ccc(/C=c2/sc3n(c2=O)NC2(c4ccccc4)N(C)C(=O)N(C)C2(c2ccccc2)N=3)cc1 (stereo unspecified)	x	11	14	3	i	x	x	x
Cc1cccc(C(=O)Nc2ccc(S(=O)(=O)N3CCOCC3)cc2)c1[N+](=O)[O-]	-4	-9	-10	-7	i	2	1	-9
Cc1ccccc1C(=O)N1CC(=O)Nc2ccc(F)cc2C1c1ccccc1 (stereo unspecified)	5	-21	51	11	i	-11	-1	35	eIF4H inh retest=-4;PABP polyA inh retest=8
COc1ccc(NC(=O)C2CCCN(S(=O)(=O)c3c(C)n[nH]c3C)C2)c(OC)c1 (stereo unspecified)	10	x	-7	2	x	2	-5	6
O=C(NCCc1cccc(Cl)c1)c1cc([N+](=O)[O-])ccc1Cl	x	7	-8	1	i	-2	1	-95
Clc1ccccc1CNCc1ccncc1	-13	-3	-6	-9	i	-3	-1	3
CCC(=O)Oc1ccc2ccccc2c1CNC(=O)c1ccccc1	-9	-4	-8	-1	i	-3	-8	33
COC(=O)CCCC1=CC2=C(c3ccccc3)C(=O)C(C)(OC(=O)C3CCCC3)C(=O)C2=CN1Cc1ccco1 (stereo unspecified)	-5	-11	60	39*	i	-17	11	-4	eIF4H inh retest=32;PABP polyA inh retest=53*
O=C(COc1ccccc1Cl)NCCCNC(=O)c1ccncc1	-17	-2	20	-2	i	-1	-2	-2
CCOc1ccc(CCNC(=O)CSc2ncn[nH]2)cc1OCC	-15	-2	-8	18	i	3	4	-10
The list goes on:
SMILES	UUG fidelity	CSC inhib	eIF4H inh	PABP polyA inh	Rce1 inh	MT1-MMP act inh	MT1-MMP act inh RFP	Env fusion inh	others
Nc1ccc(C(=O)NNC(=O)C2COc3ccccc3O2)cc1[N+](=O)[O-] (stereo unspecified)	x	-9	x	x	i	0	3	-24
C=CCn1c(-c2cccc(Cl)c2)n[nH]c1=S	x	-5	1	-2	i	3	4	x
Cc1ccc(NC(=O)CN(C)C(=O)Cc2c[nH]c3ccccc23)cc1	-11	-1	x	x	x	2	-1	11
CCOC(=O)C1(Cc2ccccc2)CCCN(Cc2cnn(CC)c2)C1 (stereo unspecified)	x	6	-5	1	i	3	0	6
